StopGo RLuc – FMDV 2A StopGo reporter, Renilla signal; AID 1745857; Potency, µM (titrated, usually from 57.5 µM), inactives show at the top dose signal change, negative = less light; actives 0.32% (n = 120,000); HEK cells with a luciferase reporter of 2A StopGo recoding; active means well fitted falling curve with a large enough effect; inconclusive means small, poorly fitted or top-dose-only effect; inactive means no such curve, though single readings can be large or run the other way; also: nearly all actives have a fitted effect of over 55% in size; overnight with compound
2A firefly – FMDV 2A StopGo reporter, firefly signal; HEK cells with a luciferase reporter of 2A StopGo recoding; Potency, µM (doses to about 57.5 µM), for the others: top-dose signal change, negative = less light; actives 0.23% (n = 120,000); AID 1745856; active = well fitted falling curve with a large enough effect; inconclusive = small, poorly fitted or top-dose-only effect; inactive = no such curve, though single readings can be large or run the other way; also: nearly all actives have a fitted effect of over 60% in size; overnight with compound
* marks the source's active call; other numbers are inactive results; ? = inconclusive; & = joins results of further samples; [ ] = another dose, or the depositor's remark. % is scaled to controls: 0 for no effect and ±100 for the full control effect; potency is read from the fitted curve at half-maximal effect.

Values run as follows: StopGo RLuc	2A firefly
O=C(NC1(C(F)(F)F)N=C(c2ccccc2)N(Cc2ccco2)C1=O)c1ccccc1Cl (stereo not given)
→ 0%	-3%
Nc1nccnc1C(=O)NCc1ccc(OC(F)F)cc1
→ ?	?
COc1ccc(-c2noc(CSc3nnc(C)n3-c3ccc(C)cc3)n2)cc1
→ -2%	-16%
CC(OC(=O)c1ccc(S(=O)(=O)Nc2ccccc2F)cc1)C(=O)N1CCCc2ccccc21 (stereo not given)
→ 34%[activator]	-8%
CN(CCOc1cccc(F)c1)Cc1nc(C2CC2)no1
→ -3%	2%
CCc1cccc(CC)c1NC(=O)c1ccc(CSc2ccccc2)cc1
→ -8%[1.06 µM]	0%
CCN(Cc1cccs1)C(=O)c1ccc(NS(C)(=O)=O)cc1
→ 42%[activator]	0%
COc1ccc(C2CC(=O)NC(SCC(=O)Nc3ccccc3F)=C2C#N)cc1OC (stereo not given)
→ 5%	17%
CCN(CC(=O)NC(=O)NCC(C)C)C1CC1
→ 4%	0%
CCCOC(=O)c1ccc(Oc2c(C(F)(F)F)oc3cc(O)ccc3c2=O)cc1
→ -27%	-11%
CSc1ccccc1C(=O)Nc1ccc(F)cc1
→ 3%	34%[activator]
CC(=O)c1cc(Br)ccc1OCC(=O)N1CCN(C(=O)c2cccs2)CC1
→ -7%	0%
CNc1c(NC(=O)COc2ccc(Cl)cc2)c(=O)oc2ccccc12
→ 2%	14%
COc1ccccc1CNC(=O)C(C)N1CCC(c2nc3cc(Cl)ccc3s2)CC1 (stereo not given)
→ ?	?
Cc1cccc(-c2nc3cc(NC(=O)c4cccc([N+](=O)[O-])c4)ccc3o2)c1
→ -4%	0%
COc1ccc(C(=O)N(Cc2ccco2)Cc2ccco2)cc1
→ 48%[activator]	-16%
CCOC(=O)C1CCN(c2ncnc3c2c(-c2ccccc2)cn3-c2ccc(C)c(Cl)c2)CC1
→ 8%	-20%
Cc1cccc(NC(=O)c2oc3ccccc3c2NC(=O)c2nn(-c3cccc(C)c3)ccc2=O)c1
→ 10%	54%[activator]
CC(NC(=O)CSc1cc(F)ccc1F)c1nc2ccccc2[nH]1 (stereo not given)
→ -4%	-3%
Cc1ccccc1OCCN(C)C(=O)c1cc(=O)c2ccccc2o1
→ 8%	4%
COc1ccc(-n2c(SCC(=O)Nc3cc(C)cc(C)c3)nc3c(oc4ccccc43)c2=O)cc1
→ -13%	-21%
COCCn1cc(C(=O)NCCc2ccc3ccccc3c2)ccc1=O
→ 0%	17%
COC(=O)C1(C)Cc2ccccc2C(=O)O1 (stereo not given)
→ 7%	-4%
O=C(Nc1ccc(F)c(Cl)c1)N1CCN(C(=O)c2nsc3ccccc23)CC1
→ 0%	0%
CC(=O)c1ccc(NC(=O)CN(C)S(=O)(=O)c2cnc[nH]2)cc1
→ -14%	-13%
CC1CC(C)(C)C(CNC(=O)CCl)C1NC(=O)CCl (stereo not given)
→ ?	-12%
CCCOc1ccc(C(=O)C(CCC(CNC(C)(C)C)C(=O)c2ccc(OCCC)cc2)CNC(C)(C)C)cc1 (stereo not given)
→ 28µM*	?
Cc1cccc(-c2noc(CN3CCC(c4ccn[nH]4)CC3)n2)c1
→ 9%	147%[activator]
Cc1cccc(NC(=O)CSc2nc3ccc(NC(=O)c4ccccc4)cc3s2)c1
→ ?	4%
CCC(=O)Nc1ccccc1-c1nnc(SCC(=O)Nc2cc(Cl)ccc2Cl)[nH]c1=O
→ -11%	-10%
O=[N+]([O-])c1cccc(NS(=O)(=O)c2ccccc2[N+](=O)[O-])c1
→ 182%[activator]	12%
Cc1ccc(OCC(=O)N(Cc2sccc2C)C2CCS(=O)(=O)C2)cc1 (stereo not given)
→ 3%	0%
COc1cc2oc(=O)c(CC(=O)N3CCCCC3)c(C)c2cc1OC
→ -1%&-3%	7%&8%
Cc1nn(CC(=O)NCc2cccc(Br)c2)c(=O)c2c1sc1ccccc12
→ 12%	-3%
CC(C)CC(NC(N)=O)C(=O)Nc1ccc2c(c1)CCC2 (stereo not given)
→ -1%	0%
Cc1ccc(NC(=O)c2c(NC(=O)Cc3ccccc3)sc3c2CCC3)cc1
→ 13%	-14%
COc1ccc(C2C(=O)N(C3CCCCCC3)CC(=O)N2CCC2=CCCCC2)cc1 (stereo not given)
→ 4%	-5%
COc1ccc(S(=O)(=O)[C@H]2CS(=O)(=O)C[C@@H]2NCc2cccnc2)cc1
→ -12%	-6%
CCC(=O)Nc1ccc(NC(=O)c2cn(C)c3ccccc23)cc1
→ 21%	30%
COc1ccc(C(=O)Oc2ccc(/C=C(/C#N)C(=O)Nc3ccccc3C(F)(F)F)cc2)cc1
→ 0%	6%
O=c1[nH]c(=O)n(C2CCCCC2)c(O)c1C1=Nc2ccccc2SC(c2ccccc2)C1 (stereo not given)
→ -16%	126%[activator]
O=C(c1ccc(F)cc1)C1CCN(CCn2c(=S)[nH]c3ccccc3c2=O)CC1
→ 32%[activator]	3%[11.5 µM]
O=C(NC(c1ccccc1)c1ccccn1)C1CCN(CC(F)(F)F)CC1 (stereo not given)
→ 2%	-3%
Cc1ccccc1OCC(=O)Nc1ccc2[nH]c(=O)sc2c1
→ 13%	111%[activator]
CCCN1CCc2nc(N)c(C#N)c(-c3cc(OC)c(OC)c(OC)c3)c2C1
→ 4%	11%
CC(NC=O)C(=O)O (stereo not given)
→ 3%	-6%
COc1ccc(NC(=O)c2c(C)oc3ccc(O)c(CN4CCC(C)CC4)c23)cc1Cl
→ -17%	-28%
CCC1CN(C(=O)N2CCC(C(=O)NCCc3ccc(Cl)cc3)CC2)c2ccccc2O1 (stereo not given)
→ 9%	-22%
CCn1cc(S(=O)(=O)c2cccc(C)c2)c(=O)c2cc(F)c(N3CCCCC3C)cc21 (stereo not given)
→ 11%	-1%
CC(C)Oc1cccc(CCN)c1
→ -4%	-5%

Other entries follow:
Values run as follows: StopGo RLuc	2A firefly
CN1CCN(c2nc3ccccc3nc2NS(=O)(=O)c2cc(Cl)ccc2Cl)CC1
→ -14%	48%[activator]
COc1cccc(NC(=O)CSc2cc(C)c3ccccc3n2)c1
→ 56%[activator]	42%[activator]
Cc1[nH]c2ccc(F)cc2c1CC(=O)NC1CCCCC1
→ 56%[activator]	-11%
COc1cc(C2C3=C(CCCC3=O)Nc3nc(SCc4ccccc4)[nH]c(=O)c32)cc(OC)c1O (stereo not given)
→ 15%	21%
Clc1ccc(-c2nc(N3CCCC3)c3ccccc3n2)cc1
→ -6%	-2%
O=C(CC1(C(=O)O)CCCCCC1)Nc1ccccc1CO
→ 7%	0%
CCCCSCCCNC(=O)CN1C(=O)c2cccnc2Oc2ccc(Cl)cc21
→ ?	?
O=C(Nc1cc(Cl)ccc1Cl)c1ccc2c(c1)N(Cc1cccc(Cl)c1)C(=O)c1ccccc1S2=O (stereo not given)
→ 4%	8%
CCCCN(CCN(CCCC)C(=O)N1CCOCC1)C(=O)N1CCOCC1
→ -15%	-27%
Cc1nn(CCCC(=O)Nc2cc(C(F)(F)F)ccc2Cl)c(=O)c2c1sc1ccccc12
→ -11%	-15%
CC1CCCCC1N(C)C(=O)c1ccsc1 (stereo not given)
→ 1%	2%
CCOc1ccc(C2CCCN2C(=O)Cn2nc(C)c3ccccc3c2=O)cc1 (stereo not given)
→ -1%	-7%
O=C(CSc1nc2cc(S(=O)(=O)N3CCOCC3)ccc2o1)NCC(F)(F)F
→ 16%	21%
CCc1ccc(/C=C/C(=O)c2cc3ccccc3oc2=O)cc1
→ 48%[activator]	0%
COc1cccc(C(=O)COC(=O)C(CC(=O)c2ccccc2)Nc2ccccc2OC)c1 (stereo not given)
→ 1%	180%[activator]
c1ccc(Sc2c(-c3ccccc3)cc3ccccn23)cc1
→ 22%	0%
Cc1ccc(NC(=O)CC(C)S(=O)(=O)c2ccc3c(c2)NC(=O)CO3)c(C)c1 (stereo not given)
→ -5%	-1%
CCCCc1cc(=O)oc2cc(C)cc(OC(C)C(=O)NCc3ccccn3)c12 (stereo not given)
→ 12%	-2%
Cc1ccc(C)c(NC(=O)C(Sc2nnnn2C)c2ccccc2)c1 (stereo not given)
→ 16%	24%
Cc1cc(OCCn2c(CCNC(=O)C3CCCCC3)nc3ccccc32)ccc1Cl
→ 17%	0%

Sorted by length of the SMILES (high to low): some entries from above.
Values run as follows: StopGo RLuc	2A firefly
Cc1ccc(NC(=O)CC(C)S(=O)(=O)c2ccc3c(c2)NC(=O)CO3)c(C)c1 (stereo not given)
→ -5%	-1%
CCCCc1cc(=O)oc2cc(C)cc(OC(C)C(=O)NCc3ccccn3)c12 (stereo not given)
→ 12%	-2%
CCOc1ccc(C2CCCN2C(=O)Cn2nc(C)c3ccccc3c2=O)cc1 (stereo not given)
→ -1%	-7%
Cc1ccc(C)c(NC(=O)C(Sc2nnnn2C)c2ccccc2)c1 (stereo not given)
→ 16%	24%
CCc1ccc(/C=C/C(=O)c2cc3ccccc3oc2=O)cc1
→ 48%[activator]	0%

(further entries)
Values run as follows: StopGo RLuc	2A firefly
CCCCNC(=O)C1CCC(Cn2c(=O)c3sccc3n(CC(=O)Nc3ccccc3)c2=O)CC1 (stereo not given)
→ -9%	0%
O=C(CNS(=O)(=O)c1ccc(N2CCCC2=O)cc1)N1CCN(CC(=O)N2CCCCC2)CC1
→ -8%	-5%
CCSc1nc(-c2ccccc2)nc2c1Cc1c(CO)cnc(C)c1O2
→ -12%	-12%
CC1CCN(Cc2ccc(CNc3ncccc3C#N)cc2)CC1
→ -17%	-9%
Cc1ccc(-c2cc(C(=O)NC3CCC(C)CC3)c3ccccc3n2)cc1C (stereo not given)
→ 16%	13%
Cc1nc(Oc2ccc(F)cc2)c2c(C)c(C)sc2n1
→ -2%	-5%
O=C1CN(C(=O)c2cc(-c3cccnc3)nc3ccccc23)CCN1
→ 12%	21%
CCc1ccccc1NCC(=O)Nc1sc2c(c1C#N)CCCCC2
→ -6%	0%
CCNC(=O)NC(=O)C(C)OC(=O)c1ccc2ccccc2n1 (stereo not given)
→ -8%	4%
Brc1ccc(Oc2ccc3nnnn3n2)cc1
→ -12%	-1%
O=C(CCC(=O)c1cccs1)Nc1ccc(N2CCOCC2)cc1
→ -9%	61%[activator]
COc1ccc(-c2cc(C(=O)OCC3CCCO3)c3ccccc3n2)cc1OC (stereo not given)
→ 6%	27%
COCCn1c(=O)c2c(nc(-n3nc(C)cc3C)n2CC(C)C)n(C)c1=O
→ 1%	-1%
COc1ccc(S(=O)(=O)Oc2ccc3c(c2)O/C(=C\c2ccc(C(C)(C)C)cc2)C3=O)cc1
→ ?	?
Cc1ccccc1N=C1Nc2cccc3cccc1c23
→ 1%	0%
Cc1ccc(C)c(NC(=O)Cn2cc(S(=O)(=O)Cc3cccc(Cl)c3)c3ccccc32)c1
→ -7%	-11%
CCCc1cc(=O)[nH]c(SCc2nnc(-c3cc(OC)c(OC)c(OC)c3)o2)n1
→ 7%	12%
CCCCc1cc(=O)oc2cc(OCC(=O)O)ccc12
→ -8%	12%
N#C/C(=C/c1cccnc1)C(=O)NCCc1ccccc1
→ 2%	2%
CCN1CCN(c2nc(-c3cccnc3)nc3ccccc23)CC1
→ -18%	-13%

Fetched by structure from the entries so far:
Values run as follows: StopGo RLuc	2A firefly
CC1CCN(Cc2ccc(CNc3ncccc3C#N)cc2)CC1
→ -17%	-9%
CC(=O)c1cc(Br)ccc1OCC(=O)N1CCN(C(=O)c2cccs2)CC1
→ -7%	0%
Brc1ccc(Oc2ccc3nnnn3n2)cc1
→ -12%	-1%

Later entries:
Values run as follows: StopGo RLuc	2A firefly
CCOc1ccc(NC(=O)C(C)n2c(=O)cc(C)c3c(C)nn(-c4ccccc4)c32)cc1 (stereo not given)
→ -8%	-9%
CC1CCN(S(=O)(=O)c2cccc(C(=O)NC3CCS(=O)(=O)C3)c2)CC1 (stereo not given)
→ -8%	-20%
COc1ccc(-c2c(C)c3cc(OS(=O)(=O)c4ccccc4)ccc3oc2=O)cc1
→ 38%[activator]	0%
CCc1ccc(CCC(=O)NCC2CCCO2)cc1 (stereo not given)
→ -1%	5%
O=C(N/N=C/c1c[nH]c2ccccc12)c1cccs1
→ 50%[activator]	296%[activator]
CCC(=O)c1ccc(OC)c(Cl)c1
→ 5%	10%
COc1cc2c(cc1OC)C(COc1ccc(C(C)C)cc1)N(C(=O)COc1ccccc1)CC2 (stereo not given)
→ -29%	?
NC(=O)NC(=O)CCN1CCOC(c2cccc(Br)c2)C1 (stereo not given)
→ 3%	-4%
CC(O)CNc1nc2c(c(=O)n(C)c(=O)n2C)n1Cc1ccccc1 (stereo not given)
→ ?	?
CC(C)C(=O)N1N=C(c2ccco2)CC1c1ccc2nccnc2c1 (stereo not given)
→ -10%	-3%
CCC(C(=O)Nc1cc(C(F)(F)F)ccc1Cl)n1nc(C)c2sc3ccccc3c2c1=O (stereo not given)
→ -13%	-17%
CCOc1ccc(CCNC(=O)C2CCCN(c3nnc(-n4cccc4)s3)C2)cc1OCC (stereo not given)
→ -18%	-14%
COc1ccc(NC(=O)CSc2oc(-c3ccc(F)cc3)nc2S(=O)(=O)c2ccc(C)cc2)c(OC)c1
→ 0%	-15%
CCn1nc(C(=O)Nc2c(F)c(F)c(F)c(F)c2F)c2ccccc2c1=O
→ -24%	10%
Cc1cc(N(C)C)nc(N2CCN(C(=O)Nc3ccccc3)CC2)n1
→ -8%	12%
Cc1ccc(CN2CCCN(Cc3c(C)cc(C)cc3C)S2(=O)=O)cc1
→ 0%	-8%
O=C(NC1CC(=O)N(c2cccc(F)c2)C1)c1cc2ccccc2o1 (stereo not given)
→ -19%	-18%

Screening data as filed in PubChem BioAssay.
